PrP 5UTR inh: inhibition of PrP 5' UTR reporter expression. 340,000 tested, 0.35% active. cell-based PrP 5' UTR mRNA reporter, plate reader. inhibition, % (no concentration beside the values);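 active means every replicate at 50% or more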;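 further: 0 = median of the neutral control wells; tested in H4 reporter cells; numbers are from one replicate; inactives centre near -14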
Bead autofluor: flagged as autofluorescent in microsphere protease counterscreen; compound autofluorescence counterscreen, microsphere flow cytometry; active compounds read high; fluorescence intensity (test concentration not listed); 360,000 tested, 3.1% active; AID 624483;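 active means at least 3 SD above the mean of all compounds, about 16000 in these data; inconclusive means too few beads counted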;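 further: 100 nL of 1 mM stock went into each well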
Sa ugtP lethal: growth inhibition of ugtP-null S. aureus, primary screen, RN4220 ugtP deletion, OD600 | AID 1259309, 2017 | 330,000 tested, 0.54% active | growth inhibition, % (concentration not given with the values) | 16 h; some inactives read as strong as hits;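 active means z-score under -3 and OD600 up to 0.15 on both plates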;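 further: plate controls were untreated wells for no effect and antibiotic for full effect; wells of about 80 µL received 100 nL stock; the first replicate is given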
Sa RN4220 lethal: growth inhibition of S. aureus RN4220, primary screen, OD600; 16 h; inhibition, % (no concentration beside the values); 330,000 tested, 0.33% active; AID 1259311, 2017;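 active means z-score of -3 or lower and OD600 up to 0.18 on both plates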;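 further: plate controls were untreated cells for no effect and reference antibiotic for full effect; stock transfer was 100 nL into about 80 µL; one replicate is shown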
BJeLR lethal: MLPCN primary cell-based screen for lethality selective to Ras in HRASV12 cells; AID 1554, 2009; 300,000 tested, 0.17% active; BJeLR (HRASV12) viability, CellTiter-Glo ATP luminescence, 48 h; reference of the scale not given here; inhibition, % (concentration not given with the values);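 active means replicate mean above 50%; inconclusive means above 50% but judged a plate artefact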;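 further: 50 nL library stock added to about 25 µL; numbers are from one replicate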
Mtb hypoxia inh: PubChem AID 1159583. M. tuberculosis hypoxia-regulated fluorescent reporter, fluorescence. fluorescence inhibition, % (concentration not given with the values). 300,000 tested, 0.1% active;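 active means 35 to 45% if threefold the growth effect, above 45% if 1.5-fold the growth effect; inactive means the rest, general growth blockers included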;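 further: wells of about 50 µL received 100 nL stock; 0% = vehicle wells and 100% = reference inhibitor wells; whole bacteria with a GFP reporter of the hypoxia response; strong numbers were not always called active; many hits fall short of the cut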
Mtb hypoxia inh growth: recorded beside Mtb hypoxia inh, whose call it bears; growth inhibition, %; measured here: M. tuberculosis growth (absorbance);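 0% = vehicle and 100% = reference antibiotic; read after six days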
Numbers without * were called inactive; ? = inconclusive; . = not tested or not shown.

item	compound	Sa RN4220 lethal	BJeLR lethal	PrP 5UTR inh	Mtb hypoxia inh	Mtb hypoxia inh growth	Bead autofluor	Sa ugtP lethal
1	CCOc1ccccc1CNC(=O)C1CCN(C(=O)N2CC(C)Oc3ccc(C)cc32)CC1 (stereo not drawn)	-9.1	-1	-18	10	10	4392	0
2	O=c1[nH]c2ccccc2nc1CCc1ccccc1	-0.1	1	-47	2	7	5174	3
3	Cc1c(NC(=O)C2CCCN2C(=O)c2cccs2)c(=O)n(-c2ccccc2)n1C (stereo not drawn)	7.5	2	-26	16	10	4949	4
4	COC(=O)CSc1nc(COc2ccccc2)nc2ccccc12	5.7	-6	-8	6	-4	3791	2
5	Cc1ccc(C(=O)c2c3ccc(N)cc3nn2CCC(N)=O)cc1	6.9	-2	-7	-1	3	3276	0
6	CCOC(=O)C(NCCCCl)c1ccccc1 (stereo not drawn)	2.3	1	-4	.	.	2488	0
7	CC(C)(C)n1nnnc1C(c1ccc(Cl)cc1)N1CCCc2ccccc21 (stereo not drawn)	3.0	-7	-24	0	9	4445	1
8	CN(C)CCCNC(=O)c1ccc(C=NO)nc1	0.6	.	.	7	11	.	3
9	CCCCCCCNC(=O)C1(CC2CC(c3ccccc3)=NO2)CCN(C(=O)c2ccccc2)CC1 (stereo not drawn)	0.7	.	-24	12	9	3669	13
10	COCCNC(=O)CSc1nc2ccc(N3CCOCC3)cc2c(=O)n1CCc1ccccc1	-1.0	-7	-18	-11	13	12429	-12
11	CN1CCN(S(=O)(=O)c2ccc(SCCOc3ccccc3)nc2)CC1	3.2	2	-23	10	7	10445	-6
12	COCCCNC(=O)Cn1c(=O)n(CC(=O)N2CCCCC2)c(=O)c2sccc21	3.6	-10	-15	8	-4	5143	10
13	CCOC(=O)c1cn(CC)c2ccc(S(=O)(=O)N3CCC(C)CC3)cc2c1=O	-5.0	-8	.	-6	1	11762	-2
14	CCOC(=O)Cc1cnc(NC(=O)CSc2nc(C(C)C)cc(=O)[nH]2)s1	3.3	4	-12	13	3	5230	0
15	CCNc1ccc2noc3c2c1C(=O)c1ccccc1-3	14	8	-20	5	-6	8588	-20
16	Cc1ccc(NC(=O)C=NOCC(=O)NCc2ccccc2Cl)cc1	0.3	.	.	7	14	.	6
17	COc1ccc(-c2ccc(=O)n(CC(=O)Nc3nnc(C(C)C)s3)n2)cc1OC	1.5	3	-5	6	5	4180	-1
18	O=c1c2c3c(sc2nc2n1CCCCC2)C(O)CCC3 (stereo not drawn)	7.7	-3	-19	5	7	4050	7
19	Cc1c(Cl)cccc1NC(=O)CCN1CCC(C(N)=O)CC1	1.2	-2	-10	-3	12	.	6
20	Cc1cc(NC(=O)C2=C(O)c3ccccc3S(=O)(=O)N2C)no1	19	13	-12	11	5	6037	-4
21	CCNc1nc(C)nc2c1oc1ccccc12	-1.3	-23	-23	12	18	11198	-10
22	O=C(Oc1c(Cl)cc(Cl)c2cccnc12)N1CCOCC1	-0.1	2	-16	2	3	?	-6
23	Cc1ccccc1NC1=NCCCS1	6.4	-6	-12	7	6	3253	10
24	Cc1ccc(NS(=O)(=O)c2ccc(Cl)c(C(=O)Nc3ccccc3-c3nc4ccccc4[nH]3)c2)cc1C	30	-21	-2	14	7	2033	-30
25	CSc1sccc1/C=N/O	.	-12	-43	.	.	5315	.
26	O=C1CCCC(=O)C1C(c1ccc(Cl)cc1)C1C(=O)CCCC1=O	3.1	.	-17	2	-4	3569	0
27	COc1ccc(OCCSc2nnc(-c3ccc(OC)cc3)n2N)cc1	-9.1	11	-3	4	16	3350	-5
28	CC(C)(C)OC(=O)N1CCC[C@H]1c1nnc(SCc2ccccc2F)o1	-11	0	-22	1	2	2854	-1
29	CCOCCCNC(=O)c1ccc(OC2CCN(C(C)=O)CC2)c(OC)c1	-2.8	10	-20	-2	-5	3318	3
30	Clc1ccc(-c2nc3ccc(Cl)cn3c2CN2CCCCC2)cc1	-12	-5	-17	-1	3	3609	22

The final 2 entries of the part before lead into the next.
item	compound	Sa RN4220 lethal	BJeLR lethal	PrP 5UTR inh	Mtb hypoxia inh	Mtb hypoxia inh growth	Bead autofluor	Sa ugtP lethal
29	CCOCCCNC(=O)c1ccc(OC2CCN(C(C)=O)CC2)c(OC)c1	-2.8	10	-20	-2	-5	3318	3
30	Clc1ccc(-c2nc3ccc(Cl)cn3c2CN2CCCCC2)cc1	-12	-5	-17	-1	3	3609	22
31	CC(Oc1ccc(-c2ccccc2)c(F)c1)c1ccn(S(=O)(=O)c2ccc(Br)cc2)n1 (stereo not drawn)	-0.5	8	-27	19	19	4598	2
32	CCOC(=O)C1=CCC(c2cccc(C)c2)N(S(=O)(=O)c2ccc(C)cc2)C1C(=O)OCC (stereo not drawn)	14	.	.	5	1	.	19
33	CC(=NNC(N)=O)c1ccc(Cl)cc1	-17	.	.	-2	2	.	-4
34	Cn1c(SCC(=O)Nc2ccc(NC(=O)c3cccc(F)c3)cc2)nnc1-c1ccncc1	1.9	-1	-12	12	1	3071	-4
35	CCN1C(=O)[C@H]2[C@@H](c3ccc(C)cc3)N3C(=O)N(c4cccc(Cl)c4)C(=O)[C@@]3(CC(C)C)[C@H]2C1=O	.	10	-18	.	.	2808	.
36	Cc1ccnc(NC(=O)C2CCN(S(=O)(=O)c3ccc4c(c3)CC(C)N4C(=O)C3CCC3)CC2)c1 (stereo not drawn)	4.0	4	0	9	2	6464	3
37	CCN(c1ccccc1)S(=O)(=O)c1cc(NC(=O)COC(=O)C2CC2)ccc1Cl	8.5	-1	-28	16	6	3165	6
38	COC(=O)COc1ccc2cc(-c3ccccc3)c(=O)oc2c1	1.5	4	-6	-3	-2	5310	5
39	CCN(CC)c1cccc(OC(=O)c2cccnc2Cl)c1	4.6	-7	-57	-11	0	5063	1
40	CCCCC1S/C(=N/N=C/c2ccc(OC)cc2)N(Cc2ccc(OC)cc2)C1=O (stereo not drawn)	.	-8	-10	.	.	9691	.
41	Cn1ncc(Cl)c1C(=O)Nc1ccncc1	0.0	1	-15	4	3	3260	7
42	CN1CCN(CCOc2cccc(Cl)c2)CC1	-1.7	8	-20	-2	-7	3776	1
43	C=CCn1c(SCn2nnc3ccccc3c2=O)nc2scc(-c3cccs3)c2c1=O	6.7	11	12	5	6	9108	14
44	CC(=O)Nc1ccc(NC(=O)c2ccc(N(C)S(=O)(=O)c3ccc(C)cc3)cc2)cc1	2.1	-11	-6	2	-10	5193	3
45	COCCn1c(=NC(=O)/C=C/c2cccs2)sc2cc(NC(C)=O)ccc21	6.6	14	1	6	-2	2153	17
46	CC(=O)CCc1c(C)[nH]c2ccccc2c1=O	1.4	-16	-12	3	-2	13178	2
47	COc1ccc(C2CC(c3ccccc3)=NN2C(=O)COC(=O)c2cc(S(=O)(=O)N3CCOCC3)ccc2Cl)cc1 (stereo not drawn)	4.4	-9	0	4	1	2110	-8
48	COc1ccc(OC)c(NC(=O)C(=O)C=C(O)c2cc(OC)ccc2OC)c1	1.9	.	.	10	12	.	-11
49	CCCCc1c(C)nc2ccccc2c1SCCC(=O)O	-3.3	-5	-23	-2	3	4443	-15
50	c1ccc(CCNC2=NCCCS2)cc1	4.4	-3	-23	9	4	3285	2
51	C[C@H](NC(=O)OC(C)(C)C)c1nnc(SCC(=O)Nc2cccc(Cl)c2)o1	1.7	2	-20	-2	-6	5708	5
52	COc1ccc(N2CCN(C(CNC(=O)C(=O)NCCCn3ccnc3)c3cccnc3)CC2)cc1 (stereo not drawn)	6.7	-8	-9	12	2	2301	3
53	O=C(OCc1ccccn1)C1CCN(C(=O)c2ccc(Cl)cc2)CC1	1.6	5	-13	9	-6	?	2
54	COc1ccc(NC(=O)CCN2CCN(S(=O)(=O)c3cc(Cl)ccc3Cl)CC2)cc1	0.1	4	-12	2	5	13481	2
55	COc1ccc(C(=O)Nc2ccc(NC(=O)c3ccccc3OC)nc2)cc1	-4.9	-12	-13	3	-3	3223	0
56	CN(CCc1ccccn1)C(=S)Nc1ccc(Cl)cc1Cl	0.8	21	-4	6	2	4329	-1
57	O=C(c1cccc(-n2cccc2)c1)N1CCN(S(=O)(=O)c2c(F)cccc2F)CC1	0.0	-6	-8	11	3	?	4
58	Cc1ccc(/C=C2/SC(=S)N(C3CCCCC3)C2=O)o1	.	13	-8	.	.	3828	.
59	CCCOc1c(Cl)cc(/C=N/O)cc1OCC	.	-11	-14	.	.	2225	.
60	COc1ccc(N2CCN(Cc3nc4c(c(=O)[nH]c(=O)n4C)n3CCCc3ccccc3)CC2)cc1	4.0	-1	-21	3	5	8470	4
61	COc1ccccc1NC(=O)CCc1nnc2ccc(N3CCC4(CC3)OCCO4)nn12	-4.5	9	-33	-6	-5	4651	-4
62	CCS(=O)(=O)N1CCC(C(=O)NCCCN2CCCC2)CC1	4.9	-7	-7	4	5	11187	9
63	S=C1N(c2ccccc2)C(c2ccc(Br)cc2)N2CCCN12 (stereo not drawn)	0.2	20	-1	5	-8	3305	5
64	O=C(NNC(=O)C1CCN(S(=O)(=O)c2ccc(Cl)cc2)CC1)c1ccccc1O	.	-6	-15	.	.	5562	.
65	N#CC(=NO)c1nc2ccccc2s1	7.5	.	.	2	9	.	-2
66	C=CCn1c(=O)c2c3c(sc2n2c(Nc4ccccc4)nnc12)CCCC3	-4.7	-4	2	11	4	.	-11
67	Cc1ccc(-c2csc(N3CCC[C@@H]3C(=O)NCCn3c(C(F)(F)F)nc4ccccc43)n2)cc1	.	-2	-12	.	.	3704	.
68	CC1=CC(C)(C)N2C(=O)C3(C(C#N)=C(N)Oc4cc(C)oc(=O)c43)c3cccc1c32 (stereo not drawn)	6.5	0	-25	.	.	5704	6
69	CCN(CC(=O)NCc1cccs1)C(=O)COc1ccc(C(N)=O)cc1	2.1	.	-20	7	-2	7978	3
70	CN(C)/C=C(/C(=O)c1ccccc1)S(=O)(=O)c1ccc(Cl)cc1	0.5	-6	-8	2	12	4331	-5
71	Cc1cccc(C)c1OCC(=O)OC/C(O)=C(\C#N)c1nc2ccccc2[nH]1	-1.2	3	-21	0	-3	7248	-3
72	CCOc1ccc(/C=N/NC(=O)CSc2n[nH]c(=O)[nH]c2=O)cc1OC	.	-13	-13	.	.	2484	.
73	CCc1ccc(S(=O)(=O)NC(=S)NC2CCCCC2)cc1	8.4	5	1	15	4	3393	6
74	CCCC(=O)Nc1cc(C(=O)O)ccc1Sc1ccc(C)cc1	1.4	-2	-31	-6	0	4493	6
75	CCCOc1ccc(Br)cc1C=NNC(=O)c1cc(OC)c(OC)c(OC)c1	4.5	.	.	6	3	.	6
76	O=[N+]([O-])c1ccc(C(=Nc2ccccc2)N2CC2)cc1	1.0	.	-9	9	13	3666	5
77	O=C(OCC(=O)N1CCCC1=O)C1CCN(S(=O)(=O)c2ccc(Cl)c(C(F)(F)F)c2)CC1	0.5	.	6	-4	0	3734	-1
78	c1ccc(SCCOCCN2CCc3ccccc3C2)cc1	2.0	2	-8	5	-1	2585	4
79	c1ccc(CCn2nnnc2C(c2cccnc2)N2CCN(c3ccccc3)CC2)cc1 (stereo not drawn)	2.8	2	-16	-5	-5	8351	-1
80	COC(=O)C1=C(C(=O)OC)[C@@H]2N(Cc3ccccc3)c3ccccc3[C@@]23C[C@@H](C(=O)OC)N(C(=O)c2ccc(Br)cc2)C3=N1	-14	-5	-14	9	7	3591	6

Carrying on:
item	compound	Sa RN4220 lethal	BJeLR lethal	PrP 5UTR inh	Mtb hypoxia inh	Mtb hypoxia inh growth	Bead autofluor	Sa ugtP lethal
81	CCN(C(=O)COC(=O)c1cc(-c2ccc3cc(OC)ccc3c2)nc2ccccc12)C1CCS(=O)(=O)C1 (stereo not drawn)	0.1	12	.	6	4	.	-10
82	O=c1cc(C(F)(F)F)[nH]c(=O)n1C1CCCCC1	5.3	-12	-20	5	5	24214*	1
83	Cc1cc(NC(=O)CSc2nnnn2-c2cc(Cl)ccc2C)no1	3.0	-7	-9	1	2	3323	3
84	O=C(O)c1cccc(NS(=O)(=O)c2cc(S(=O)(=O)c3ccc(Cl)cc3)ccc2Cl)c1	-0.6	-8	-33	0	-5	5841	6
85	CS(=O)(=O)N(CCC#N)Cc1ccc(C=O)o1	5.6	8	-39	6	2	4687	3
86	CC(C)(C)NCc1ccccc1OCc1cccs1	0.7	15	-4	7	15	12186	-3

Hits appear at their usual frequency; about 4% have a hit in one of these screens.
